Screens: PubChem BioAssay, Vanderbilt University
GIRK2 activ: opens human GIRK2 potassium channels; calls only for hits at 25 µM; 63,000 compounds, 0.05% hits; P48051; AID 1259325; HEK293-GIRK2 thallium flux, Thallos fluorescence;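 active means among the strongest 0.2% of first-round signals and kept after retests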;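 further: first round at about 10 µM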
Target sequence (P48051 whole entry, looked up): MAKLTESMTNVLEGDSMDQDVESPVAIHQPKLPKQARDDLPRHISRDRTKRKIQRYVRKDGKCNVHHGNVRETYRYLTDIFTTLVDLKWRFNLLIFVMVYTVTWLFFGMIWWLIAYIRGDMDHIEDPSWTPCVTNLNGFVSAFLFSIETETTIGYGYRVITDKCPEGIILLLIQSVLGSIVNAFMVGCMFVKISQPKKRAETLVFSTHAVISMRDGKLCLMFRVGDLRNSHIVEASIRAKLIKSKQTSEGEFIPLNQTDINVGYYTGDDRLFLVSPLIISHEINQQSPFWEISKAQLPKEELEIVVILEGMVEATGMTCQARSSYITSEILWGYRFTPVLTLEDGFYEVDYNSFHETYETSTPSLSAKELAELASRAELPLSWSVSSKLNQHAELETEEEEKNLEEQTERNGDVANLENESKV
Calls only; i = inactive.

GIRK2 activ,molecule
i,COc1ccc(-c2c[nH]c(=S)n2CC(C)C)cc1
i,CCCNC(=O)c1cccc(N2CCC(C(=O)NC3CCCCCC3)CC2)n1
i,Cn1nc(CNC(=O)c2cc(-c3ccco3)on2)cc1-c1ccncc1
i,Cc1nc(-c2cccc(NC(=O)c3ccc(-n4ccnc4C)nn3)c2)cs1
i,Cc1cc(C)n(-c2ccc(C(=O)NCc3csc(-c4ccccc4)n3)nn2)n1
i,CCn1c(C)nnc1SCc1nc(-c2cccc(C)c2)oc1C
i,COc1ccc(CNC(=O)N2CCC(Oc3ccc(C#N)cn3)CC2)cc1OC
i,O=C(CSc1nnc2ccc3ccccc3n12)c1ccc2c(c1)OCCO2
i,O=C1CN(C(=O)c2cnccn2)c2ccccc2N1
i,COc1ccc(NC(=O)Cn2ccn3nc(-c4ccccc4)cc3c2=O)cc1OC
i,COc1ccc(S(=O)(=O)Nc2ccc3c(c2)CCC(=O)N3)cc1OC
i,COC(=O)c1sccc1NC(=O)CSc1nccnc1N1CCN(c2cccc(C)c2C)CC1
i,Cc1cccc(C)c1N1CCN(S(=O)(=O)c2ccc(F)cc2)CC1
i,CCN(CC)CCN1C(=O)c2oc3cc(OC)ccc3c(=O)c2C1c1cccc(OC)c1 (centres undefined)
i,Cc1ccc(S(=O)(=O)Nc2ccc3c(c2)N(S(C)(=O)=O)CCC3)cc1C
i,COc1ccc(CCn2c(-c3ccccc3F)nc3oc4ccccc4c(=O)c3c2=O)cc1
i,CNC(=O)Cc1ccc(NC(=O)OCc2ccccc2)cc1
i,O=C(NCCNc1ccc(-n2cccc2)nn1)C1CCCC1
i,O=C(NC1CCCCCC1)c1ccc(Cn2c(=O)[nH]c3ccsc3c2=O)cc1
i,Cc1nn(C)cc1C(=O)Nc1ccc2c(c1)OCCO2

Some of the entries above in a different format.
canonical_smiles: COC(=O)c1sccc1NC(=O)CSc1nccnc1N1CCN(c2cccc(C)c2C)CC1
  GIRK2 activ = i
canonical_smiles: Cc1cccc(C)c1N1CCN(S(=O)(=O)c2ccc(F)cc2)CC1
  GIRK2 activ = i

The listing continues.
GIRK2 activ,molecule
i,COc1ccc(-c2coc3cc(OCCN4CCN(C)CC4)ccc3c2=O)cc1OC
i,COc1ccccc1NC(=O)CN1CCc2nc(NC(=O)C3CC3)sc2C1
i,COc1ccc(C(=O)c2oc3ccccc3c2NC(=O)c2ccco2)cc1Cl
i,Cc1nn(C2CCS(=O)(=O)C2)c(C)c1N1CCN(C(=O)c2cc(-c3ccco3)on2)CC1 (centres undefined)
i,Nc1nc(NCCN2CCOCC2)ncc1[N+](=O)[O-]
i,COc1cccc(CSc2nc(CC(=O)N3CCc4ccccc43)cc(=O)[nH]2)c1
i,O=C(CSC1CCCC1)N1CCN(S(=O)(=O)C2CC2)CC1
i,O=C(C1CCN(c2ncccc2-c2nc(-c3ccccc3)no2)CC1)N1CCN(c2ccccn2)CC1
i,CCOc1ccc(C(=O)N(CN2CCCC2=O)c2cccc(Cl)c2)cc1
i,O=S(=O)(NCC1CCN(S(=O)(=O)c2cccnc2)CC1)c1ccccc1Cl
i,O=C(CCc1csc(NC(=O)c2ccc(F)cc2)n1)NCCc1c[nH]c2ccccc12
i,O=C(COc1ccc(Cl)cc1Cl)NCC1CCN(C(=O)Oc2ccccc2)CC1
i,O=c1/c(=C\c2ccc(-c3ccccc3)o2)sc2nc(-c3ccco3)nn12
i,COc1cc([N+](=O)[O-])ccc1NC(=O)c1ccccc1NS(=O)(=O)c1ccccc1
i,CC(C)c1cc(=O)[nH]c(-n2nc(-c3cccs3)cc2NC(=O)c2cc3ccccc3o2)n1
i,Cc1ccc(C)c(S(=O)(=O)Nc2ccc(C(=O)N3CCN(Cc4ccccc4)CC3)cc2)c1
i,Cn1nnnc1SCC(=O)NCCOc1ccc(-c2ccc(F)cc2)nn1
i,CC1CCN(CCCC(=O)c2ccc(F)cc2)CC1
i,CCc1ccc2c(c1)c(=O)c(S(=O)(=O)c1ccc(C)cc1)cn2CC(=O)Nc1cccc(Cl)c1
i,Cc1csc(CN2CCN(C(=O)CC3CCCC3)CC2)n1
i,CN(C)c1ccc(/C=C2/CCC/C(=C\c3ccc(N(C)C)cc3)C2=O)cc1
i,COc1cccc(Oc2c(C(F)(F)F)oc3cc(OC(=O)N4CCOCC4)ccc3c2=O)c1
i,O=C(Nc1ccc2c(c1)OCCO2)c1csc2nc(-c3ccc(F)cc3)cn12
i,COCCNC(=O)c1c(N)n(-c2ccc(Cl)cc2)c2nc3ccccc3nc12
i,Cc1cc(C)c2sc(N3CCN(C(=O)NCc4cccs4)CC3)nc2c1
i,C[C@@H]1O[C@@H](O[C@H]2[C@H](O[C@H]3CO[C@@H](OC4CC[C@@]5(C)C(CC[C@]6(C)C5CC[C@]57OC[C@@]8(CC[C@](C)(C=O)CC85)[C@H](O)C[C@]76C)C4(C)C)[C@H](O[C@@H]4O[C@H](CO)[C@@H](O)[C@H](O)[C@H]4O)[C@H]3O)O[C@H](CO)[C@@H](O)[C@@H]2O)[C@H](O)[C@H](O)[C@H]1O (some centres undefined)
i,CC(C)S(=O)(=O)c1ccc(CC(=O)N2CC(c3nc(-c4cccnc4)no3)C2)cc1
i,COc1ccc(S(=O)(=O)Nc2ccc3c(c2)CCCN3S(=O)(=O)c2ccccc2)cc1
i,Cn1c(=O)c(Oc2ccc(F)cc2F)cc2cnc(N[C@H]3CCOC3)nc21
i,Cn1cccc1CN(Cc1cccs1)C(=O)NCc1ccc(F)cc1
i,Cc1cc(NC(=O)CCCSc2ccc(NC(=O)c3ccco3)nn2)no1
i,Cn1cc(C(=O)Nc2ccc(-n3cnnn3)cc2)nn1
i,CCOc1ccc(-n2c(C)cn3c4c(=O)n(CC)c(=O)n(C)c4nc23)cc1
i,COC1C=C(COC(=O)c2ccccc2)C(O)C(OC(=O)c2ccccc2)C1O (centres undefined)
i,Cn1cc(-c2ccco2)nc1CCNC(=O)C1CCN(S(C)(=O)=O)CC1
i,O=C(Nc1nccs1)C1CCN(C(=O)c2cc(-c3ccc(F)cc3)n[nH]2)CC1
i,O=C(c1cccc2ccccc12)N1CCN(S(=O)(=O)C2CC2)CC1
i,Cn1c(=O)c2c(nc(N3CCNCC3)n2CCCOc2ccccc2)n(C)c1=O
i,CC(C)n1c(CN2CCN(c3ccccc3)CC2)nc2c1c(=O)n(C)c(=O)n2C
i,COc1ccc(OCCS(=O)(=O)N(Cc2ccccc2)c2ccccc2)cc1
i,Cc1noc(C)c1CCC(=O)NCCOc1cccc2cccnc12
i,Nc1nccc(-c2c(-c3ccc(F)cc3)ncn2C2CCNCC2)n1
i,COCCn1c(=O)c2c(nc3n(-c4ccc(OC)cc4)c(C)c(C)n23)n(C)c1=O
i,Cc1cc(C)cc(OCCNS(C)(=O)=O)c1
i,COC(=O)C1(NC(=O)c2cnn3c2OCCC3)CCCC1
i,COc1ccc(CCC(=O)N2CCC(Oc3cnccn3)CC2)cc1
i,Cc1nc(C)c(CNC(=O)c2ccc(S(=O)(=O)N3CCOCC3)cc2)s1
i,COc1ccccc1-c1cc2c(=O)n(Cc3ncc(C)c(OC)c3C)ccn2n1
i,O=C(NCc1cccs1)C(=O)NCC1CCN(S(=O)(=O)c2cccnc2)CC1
i,O=C(NCc1ccc(Cl)cc1)NCC1CCN(C2CCCC2)CC1
i,Cc1noc(C)c1CCC(=O)N1CCN(C(=O)C2CC2c2cccs2)CC1 (centres undefined)
i,COCC(C)NS(=O)(=O)CCNC(=O)c1ccc2c(c1)OCO2 (centres undefined)
i,CCCS(=O)(=O)c1ccc(N2CCN(Cc3ccc4c(c3)OCO4)CC2)nn1
i,CCOc1cc(C2C(C(=O)Nc3ccccc3OC)=C(C)Nc3nc(SCC)nn32)ccc1O (centres undefined)
i,O=S(=O)(c1ccc(Br)s1)N(Cc1ccsc1)C1CC1
i,CSc1ccccc1C(=O)Nc1ccc2c(c1)C(=O)N1CCCCC1CCO2 (centres undefined)
i,CCOCCCNc1oc(-c2ccc(S(=O)(=O)N3CCCC3)cc2)nc1C#N
i,CNC(=O)Cc1ccc(-n2c(=O)c3ccccc3n(Cc3ccc(N4CCCC4=O)cc3)c2=O)cc1
i,CC(=O)Nc1cccc(NC(=O)CSc2nnc(C(C)C)c3cnn(-c4ccc(C)c(C)c4)c23)c1
i,CC(C)(C)C(=O)N1CCN(Cc2nnnn2-c2cccc(F)c2)CC1

(list continues)
GIRK2 activ,molecule
i,O=C(CN1C(=O)CC(c2ccco2)Sc2ccccc21)NC1CCCCC1 (centres undefined)
i,CCCCNC(=O)c1cccc(-n2ccnc2SCC(=O)Nc2ccc(Cl)cc2F)c1
i,O=c1ccc(-c2nc(-c3ccccc3F)no2)cn1Cc1noc(C2CCCC2)n1
i,COc1ccccc1NC(=O)Cn1ccn2nc(-c3ccc(OC)c(OC)c3)cc2c1=O
i,COCCNC(=O)C(=O)NCC1OCCCN1S(=O)(=O)c1c(C)cc(C)cc1C (centres undefined)
i,CC(C)CNC(=O)c1ccc2c(=O)n(C(C)C)c3nn(CC(=O)NCc4ccccc4)c(=O)n3c2c1
i,Cn1c(=O)c(Oc2ccccc2F)cc2cnc(NC3CCOCC3)nc21
i,CCc1ccc(NC(=O)c2cc(S(=O)(=O)NCc3ccc(OC)cc3)ccc2F)cc1
i,O=C(Cn1nc(C2CC2)n(-c2ccccc2)c1=O)c1ccccc1
i,COc1cc2cc(CNc3ccccc3)c(=O)n(CC(=O)Nc3cc(Cl)ccc3C)c2cc1OC
i,COc1ccc(F)cc1S(=O)(=O)NCCc1nc(C)cc(C(F)(F)F)n1
i,Cc1cn2c3c(=O)n(CCN4CCOCC4)c(=O)n(C)c3nc2n1Cc1ccco1
i,CC(C)NC(=O)C(=O)NCC(C)(O)CCc1ccccc1 (centres undefined)
i,COc1nn(C)cc1C(=O)NCCn1nc(C2CC2)n(-c2ccccc2)c1=O
i,CCN1C(=O)CSC1=NS(=O)(=O)c1ccccc1
i,CC(C)c1cc(=O)[nH]c(-n2nc(C3CC3)cc2NC(=O)c2cc(C3CC3)on2)n1
i,CC1(C)OCC2(CO1)CN(S(=O)(=O)CCN1C(=O)CCCC1=O)C2
i,O=C(c1ccc(OC(F)(F)F)cc1)N1CCC(CSc2ccccn2)CC1
i,COc1cc(OC)cc(C(=O)Nc2cnc(N(C)C)nc2)c1
i,Cc1onc(-c2ccccc2)c1C(=O)NC1C(=O)N2C1SC(C)(C)C2C(=O)O (centres undefined)
i,N#Cc1ccc(OC2CCN(C(=O)c3ccccc3Cl)CC2)nc1
i,CS(=O)(=O)Nc1cccc(NC(=O)CSc2nc3ccccc3o2)c1
i,COc1ccc(-c2csc3c(=O)n(CC(=O)Nc4cc(C)ccc4C)cnc23)cc1
i,N#Cc1ccc(NC(=O)Cn2nc3c(Oc4ccccc4)nccn3c2=O)cc1
i,O=C1CCSCC(C(=O)NCCc2cccs2)N1 (centres undefined)
i,O=C(CCn1c(=O)[nH]c2ccccc2c1=O)N1CCN(c2ccccc2)CC1
i,Cc1cc2c(=O)n(C)c(SCC(=O)Nc3ccccc3C)nc2s1
i,COc1ccc(CCNC(=O)N2CCN(Cc3nc4ccccc4n3Cc3ccccc3)CC2)cc1
i,O=C1CCSCC(C(=O)Nc2ccc3cn[nH]c3c2)N1 (centres undefined)
i,C[C@@H]1O[C@@H](OC2C(CO)OC(OCC3OC(OC(=O)[C@]45CCC(C)(C)CC4C4=CCC6[C@@]7(C)CC[C@@H](O)[C@](C)(C(=O)O)C7CC[C@@]6(C)[C@]4(C)CC5)C(O)C(O)C3O)C(O)C2O)[C@H](O)[C@H](O)[C@H]1O (some centres undefined)
i,O=C(Nc1onc2c1CSC2)c1cccc2ccccc12
i,CCOCCn1c(=O)c2c(nc3n2CCCN3c2ccc(C)c(C)c2)n(C)c1=O
i,Cc1noc(C2CN(CC(=O)Nc3ccc(Cl)c(Cl)c3)C2)n1
i,CC(C)CC(=O)NCCCS(=O)(=O)N1CCN(c2ncccn2)CC1
i,CCc1nc2ccccc2n1Cc1ccc(F)cc1
i,Cc1nc(C)c(C(=O)C2=C(O)C(=O)N(CCN(C)C)C2c2ccco2)s1 (centres undefined)
i,O=C1CC(NS(=O)(=O)c2ccc(C(F)(F)F)cc2)CN1C1CC1 (centres undefined)
i,Cc1cccc(C)c1NC(=O)Cn1nc(-c2cccs2)c2sc(N3CCOCC3)nc2c1=O
i,COCCN(Cc1ccncc1)C(=O)C(C)(C)C
i,COc1ccc(-c2nc(Cn3nnc(C(=O)Nc4ccc(OC)c(OC)c4)c3N)c(C)o2)cc1
i,COc1ccc(N2CC(c3nc4ccccc4n3Cc3ccc(Cl)cc3)CC2=O)cc1 (centres undefined)
i,COc1ccc(S(=O)(=O)N2CCCOC2CNC(=O)C(=O)NCc2cccnc2)cc1C (centres undefined)
i,CCCCC[C@](C)(O)/C=C/[C@H]1C(=O)C[C@H](O)[C@@H]1C/C=C\CCCC(=O)O
i,CC1(C)OCC2(CO1)CN(C(=O)/C=C/c1ccccc1Cl)C2
i,COc1cccc2c(SCc3cccnc3)nccc12
i,COc1cc(=O)c(C(=O)Nc2ccc3c(c2)OCCO3)nn1-c1ccc(F)cc1

Among those listed so far, these have two or more sulfur atoms:
GIRK2 activ,molecule
i,COC(=O)c1sccc1NC(=O)CSc1nccnc1N1CCN(c2cccc(C)c2C)CC1
i,Cc1ccc(S(=O)(=O)Nc2ccc3c(c2)N(S(C)(=O)=O)CCC3)cc1C
i,O=C(CSC1CCCC1)N1CCN(S(=O)(=O)C2CC2)CC1
i,O=S(=O)(NCC1CCN(S(=O)(=O)c2cccnc2)CC1)c1ccccc1Cl
i,Cc1cc(C)c2sc(N3CCN(C(=O)NCc4cccs4)CC3)nc2c1
i,COc1ccc(S(=O)(=O)Nc2ccc3c(c2)CCCN3S(=O)(=O)c2ccccc2)cc1
i,Cc1nc(C)c(CNC(=O)c2ccc(S(=O)(=O)N3CCOCC3)cc2)s1
i,O=C(NCc1cccs1)C(=O)NCC1CCN(S(=O)(=O)c2cccnc2)CC1
i,O=S(=O)(c1ccc(Br)s1)N(Cc1ccsc1)C1CC1
i,CCN1C(=O)CSC1=NS(=O)(=O)c1ccccc1
i,CS(=O)(=O)Nc1cccc(NC(=O)CSc2nc3ccccc3o2)c1
i,O=C1CCSCC(C(=O)NCCc2cccs2)N1 (centres undefined)
i,Cc1cc2c(=O)n(C)c(SCC(=O)Nc3ccccc3C)nc2s1
i,Cc1cccc(C)c1NC(=O)Cn1nc(-c2cccs2)c2sc(N3CCOCC3)nc2c1=O

These rows are one share of the data. The share of hits here may be higher or lower than overall.
